Rango dissoc inh: inhibitors of RanGTP-induced Rango-importin beta complex dissociation | Biochemical FRET Rango-importin beta, RanGTP-induced dissociation | Potency, µM (doses to about 46.1 µM), without a hit: at the highest dose activity change, negative = inhibition | hit rate 0.071% among 340,000 | AID 540253; active means falling FRET ratio curve, often poorly fitted, with flat reads before Ran was added; inconclusive means other falling curves, or compound fluorescence or quenching; inactive means flat or rising ratio curve;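 note: potency is the fitted concentration of half-maximal effect; % of control where 0% means no effect; nearly all actives have a fitted effect of over 45% in size; -100% = wells without RanGTP and RCC1; the record marks most hits as doubtful in a second field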
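Rango FRET biosensor (snurportin-1 IBB flanked by N-terminal EYFP and C-terminal CFP10) at 0.1 uM, with 0.25 uM importin beta in PBS, 1mM DTT, 0.02% Tween-20, 0.1% BSA. 0.6 uM Ran, 2mM GTP and 0.2 uM RCC1 were then added for 45 min at room temperature. Inhibition read as loss of FRET rise.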
Rango complex inh: inhibitors of Rango-importin beta complex formation | Q14974 | Rango CFP/YFP FRET sensor + importin beta, 45 min | Potency, µM (highest dose often 92.2 µM), for the others: at the top dose inhibition of complex formation | hit rate 0.031% among 340,000; active = rising FRET ratio curve, often small or poorly fitted; inconclusive = mostly compound fluorescence or quenching in the first reads; inactive = flat curves in all reads;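 note: potency is the fitted concentration of half-maximal effect; 0% = DMSO wells and 100% = buffer wells lacking importin beta; nearly all actives have a fitted effect of over 15% in size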
Target sequence (Q14974 whole entry, looked up): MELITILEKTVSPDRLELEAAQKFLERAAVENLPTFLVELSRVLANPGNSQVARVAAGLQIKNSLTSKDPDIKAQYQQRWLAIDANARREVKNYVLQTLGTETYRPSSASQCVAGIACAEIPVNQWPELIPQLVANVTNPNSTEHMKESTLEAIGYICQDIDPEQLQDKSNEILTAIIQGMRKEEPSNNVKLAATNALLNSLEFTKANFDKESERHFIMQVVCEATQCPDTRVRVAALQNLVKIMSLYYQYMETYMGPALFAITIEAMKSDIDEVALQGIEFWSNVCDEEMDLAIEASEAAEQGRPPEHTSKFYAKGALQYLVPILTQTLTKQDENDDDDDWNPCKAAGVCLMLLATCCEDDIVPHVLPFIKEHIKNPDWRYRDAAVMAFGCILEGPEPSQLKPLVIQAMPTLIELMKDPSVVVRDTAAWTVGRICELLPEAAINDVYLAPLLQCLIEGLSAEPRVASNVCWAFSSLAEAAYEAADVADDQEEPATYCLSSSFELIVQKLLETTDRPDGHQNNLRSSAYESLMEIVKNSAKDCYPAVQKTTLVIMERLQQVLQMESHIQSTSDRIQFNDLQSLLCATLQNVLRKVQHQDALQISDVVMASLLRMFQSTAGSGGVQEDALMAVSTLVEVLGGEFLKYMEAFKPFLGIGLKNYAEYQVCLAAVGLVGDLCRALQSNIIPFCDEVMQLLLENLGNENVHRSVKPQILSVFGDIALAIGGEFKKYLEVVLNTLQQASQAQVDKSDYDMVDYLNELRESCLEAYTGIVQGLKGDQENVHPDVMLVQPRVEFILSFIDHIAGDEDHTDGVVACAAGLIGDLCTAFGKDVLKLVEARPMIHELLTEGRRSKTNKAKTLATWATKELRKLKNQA
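FRET biosensor Rango (snurportin 1 IBB between N-terminal EYFP and C-terminal Cerulean), 50 nM in PBS/1 mM DTT/0.02% Tween-20/0.1% BSA, preincubated 5 min RT with compound; 0.125 microM importin beta added, 45 min RT, CFP/YFP FRET ratio read.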
GLA inh pH 4.5: blocks human alpha-galactosidase A at pH 4.5. 230,000 tested, under 10 active. activity change, negative = inhibition, % at 105 µM. AID 1467. purified enzyme, 4-MU-alpha-Gal fluorescence, pH 4.5; inconclusive = small, poorly fitted or top-dose-only inhibition, or a rising curve; inactive = flat fitted curve, though single readings scatter; no compound was filed as active;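 note: 0% = full activity with enzyme and -100% = basal without enzyme; dose as in the result columns while the protocol names 77 µM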
miR-21 reporter: raises the signal of a miR-21 reporter; AID 2288; Potency, µM (series often up to 38.3 µM), without a hit: at the top dose reporter change, positive = more light; HeLa miR-21 FLuc reporter, luciferase, 48 h; 340,000 tested, under 10 active; active = well fitted rising curve with a large enough effect; inconclusive = small, poorly fitted or top-dose-only effect; inactive = no such curve, though single readings can be large or run the other way;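 note: % of control where 0% means no effect; miR-21 action dims this reporter so a rising signal means less miR-21 action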
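HeLa cells stably expressing CMV-driven firefly luciferase with a downstream miR-21 binding sequence, endogenously expressing miR-21, were treated with titrations (up to about 40uM final) for 48 hours at 37 degree Celsius. Luciferase luminescence was read after lysis.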
Active calls of the source: *; ? = inconclusive; / = not tested or not shown; & = joins results of further samples; [ ] = remark or other dose. A portion of the library (hit frequency here may not be typical).

Rango dissoc inh	Rango complex inh	GLA inh pH 4.5	miR-21 reporter	canonical_smiles
?	-1.4%	2	2%	O=C1c2ccc3c4c(ccc(c24)C(=O)N1c1ccc(O)cc1)C(=O)N(c1ccc(O)cc1)C3=O
1%	?	-3&-10	13%	O=C(Nc1cccc(C(F)(F)F)c1)OCCN1CCN(Cc2ccccc2)CCC1=O
1%	0.6%	/	-5%	CCn1cc(C(=O)NCCCOC(C)C)c(=O)c2cc(S(=O)(=O)N3CCCC3)ccc21
-10%	1.1%	-5	-1%	COC(=O)c1ccc(-c2ccco2)n1Cc1nc(-c2ccc(OC)c(OC)c2)oc1C
1%	0.2%	/	/	O=[N+]([O-])c1cccnc1Sc1ccc(Br)cc1
0%	-2.7%	2	-8%	C=CCNC(=O)C(=O)N/N=C/c1ccco1
5%	2.4%	/	-18%	Cc1nn(C(C)C(=O)NC2CCC(C)CC2)c(=O)c2nn(-c3ccccc3)c(C)c12 (stereo unspecified)
0%	0.2%	-1	11%	CC(=O)c1c(C)oc2ccc(N(C(=O)c3ccncc3)S(=O)(=O)c3ccccc3)cc12
-20%	4.9%	-2	-1%	CCOCCCNC(=O)C(NC(=O)Cc1cccs1)c1ccc(OC)cc1 (stereo unspecified)
11%	0.0%	/	/	O=C(NNC(=O)c1cccc(S(=O)(=O)Nc2ccc(Cl)cc2)c1)c1ccc(=O)[nH]c1
19%	-3.0%	/	/	CCCCn1c(N)c(N(CCC(C)C)C(=O)c2ccc(C)c(S(=O)(=O)N3CCOCC3)c2)c(=O)[nH]c1=O
-3%	-0.6%	/	-11%	CN(C)c1nc2c(N)ncnc2n1[C@H]1O[C@@H](CO)[C@H](O)[C@@H]1O
-10%	-2.8%	-1	4%	CCS(=O)(=O)N1CCC(C(=O)NCc2ccc(OC)cc2)CC1
24%	-2.4%	/	-5%	Cc1cccc(NC(=O)CNCC(=O)Nc2cccc(C)c2C)c1C
?	-0.6%	/	/	COc1ccc(CC(=O)Nc2sccc2C#N)cc1S(=O)(=O)N1CCOCC1
-2%	3.5%	/	1%	Cc1ccccc1CNC(=O)CN1C(=O)c2ccccc2S1(=O)=O
-15%	0.2%	-2	-1%	Cc1ccc(S(=O)(=O)Nc2cc(NC(=O)CN3CCOCC3)ccc2Cl)cc1
-8%	0.3%	-1	-1%	Cn1cnc(S(=O)(=O)Nc2ccccc2C(=O)NCC2CC2)c1
-9%	3.7%	5	20%	CC(Cc1cccs1)NC(=O)Nc1ccc(Cl)c(Cl)c1 (stereo unspecified)
-13%	-3.7%	-5	-3%	COc1ccc([N+](=O)[O-])cc1N(CC(O)CN(C)C)S(=O)(=O)c1ccccc1 (stereo unspecified)
-11%	0.5%	/	-70%	CCC(=O)Nc1nnc(/C=C/c2ccccc2)s1
0%	-0.5%	/	0%	CCOC(=O)c1cccc(NC(=O)CN2C(=O)C3CC=CCC3C2=O)c1 (stereo unspecified)
2%	0.4%	-5	7%	COc1cccc(-n2c(CN3CCN(c4ccccn4)CC3)nc3ccc([N+](=O)[O-])cc3c2=O)c1
1%	1.7%	-2	-24%	Cc1ccc(-c2n[nH]c(S(C)(=O)=O)c2C#N)cc1
-1%	-3.5%	/	5%	Cc1ccc(C)c(N2CCN(C(=O)c3ccc(CS(=O)Cc4cccc(Cl)c4)o3)CC2)c1 (stereo unspecified)
?	0.3%	-1	-4%	Cc1cc(NC(=O)NC(=O)c2ccc(F)cc2F)n[nH]1
?	?	-18	-4%	CCN(CC)c1ccc(-c2nnc(SCC(=O)Nc3ccccc3C#N)n2-c2ccccc2)cc1
-1%	-0.1%	2	-16%	Cc1ccc(C)c2c1cc(C)c1nnc(SCc3ccccn3)n12
-4%	-0.5%	/	/	O=C1CC2(CCN(C(=O)c3ccccc3Cl)CC2)Oc2ccccc21
0%	-4.4%	-4	-18%	O=C(Nc1cccc2c1CCCC2)c1ccncc1
-12%	0.3%	10	-35%	O=C(CSc1nc(-c2ccccc2)cs1)NCc1ccco1
9%	-0.9%	/	/	CN(CC(=O)Nc1ccc(F)cc1)C(=O)c1cn(-c2ccccc2)nc1-c1cccs1
-16%	1.6%	4	-1%	O=C(NC(CCl)c1ccccc1)c1ccc(Cl)cc1 (stereo unspecified)
?	?	3	3%	C=CCN1C(=O)C2(c3ccccc31)C1CCCC=C1C(C#N)=C(N)C2(C#N)C#N (stereo unspecified)
/	/	3	1%	CCCCCOc1ccc(N2C(=O)C(C)CNC2=S)cc1 (stereo unspecified)
?	1.8%	-1	0%	CC(C)(C)NC(=O)NC(=O)COC(=O)Cc1ccc(Cl)cc1Cl
23%	2.3%	/	/	C[C@H]1NC(=O)[C@]2(C)[C@@H](c3ccccc3)[C@H]3COc4ccccc4[C@H]3N2C1=O
17%	0.2%	/	7%	CC1=C(C(=O)Nc2cccc(C(=O)NC3CCCCC3C)c2)SCCO1 (stereo unspecified)
2%	-3.3%	-3	-28%	O=C(CCn1cnc2ccccc2c1=O)Nc1ccc2c(c1)OCCO2
2%	-7.6%	-7	0%	Cc1cc(C)c(C#N)c(N2CCN(CCOc3ccc(Cl)cc3)CC2)n1
-2%	0.2%	/	/	CC(=O)O[C@H]1CC[C@@]2(C)[C@@H](CC[C@@H]3[C@@H]2CC[C@]2(C)[C@@H](C(C)(C)O)C[C@@H]32)C1
13%	-1.4%	/	0%	C=C1CCC[C@]2(C)C[C@H]3OC(=O)C(CNCCN(C)C)[C@H]3CC12 (stereo partly specified)
11%	-0.2%	/	6%	COc1ccc(N2CCOCC2)c(NC(=O)c2cccs2)c1
-14%	-0.4%	-5	-14%	CCCCC(=O)N/N=C(\C)CC(=O)Nc1ccccc1Br
-8%	-3.8%	/	7%	Cn1nccc1C(=O)Nc1ccc(S(=O)(=O)N2CCCC2)cc1
-8%	-0.5%	4	3%	Cc1ccc(NC(=O)CSc2nc3ccccc3c(=O)n2CCCC(=O)N2CCCC2)cc1
0%	-0.7%	/	/	COc1ccc(CCN(C)C(=O)CN2C(=O)NC3(CCCCC3C)C2=O)cc1OC (stereo unspecified)
1%	8.6%	5	-8%	O=C1Nc2ccccc2Oc2cc([N+](=O)[O-])cc(Oc3ccccc3)c21
-13%	-2.3%	-5	3%	Cc1ccc(S(=O)(=O)NNC(=O)CCC(=O)Nc2ccc(C)cc2C)cc1
27%	-4.4%	7	-55%	CCn1c(C)nc2cc(C(=O)OCCC(F)(F)F)ccc21
?	0.2%	3	-6%	O=C(C1CCCO1)N1CCN(C(=S)Nc2ccc(Cl)c(Cl)c2)CC1 (stereo unspecified)
-12%	0.3%	/	/	CCCCN(C(=O)c1cccc(S(=O)(=O)N(C)c2ccc(C)cc2)c1)c1c(N)n(CCCC)c(=O)[nH]c1=O
30%	1.2%	/	/	Cc1cccc(-n2nnnc2SCC(=O)NC2CCCC2)c1
6%	-0.1%	-1	-5%	Cc1c(Cl)ccc(S(=O)(=O)N2CCN=C2c2ccccc2)c1Cl
7%	0.0%	-1	2%	COc1ccccc1NS(=O)(=O)c1cccc(C(=O)N/N=C/c2ccc(C)o2)c1
-8%	1.7%	2	-15%	O=C(NC(=O)c1ccc(F)cc1)Nc1nc(-c2cccs2)cc(C(F)(F)F)n1
7%	7.3%	-1	-9%	COc1cc(SC)ccc1C(=O)NC(C)C
-6%	0.0%	/	/	CCOc1cc(C=NN2CCCCCC2)ccc1O
2%	0.1%	-1	-6%	O=C(O)c1cccnc1Sc1ccccc1Cl
-2%	-1.3%	0	-42%	Clc1ccccc1/C=C/c1ccnc2ccccc12

Following part.
Rango dissoc inh	Rango complex inh	GLA inh pH 4.5	miR-21 reporter	canonical_smiles
0%	-1.5%	6	-11%	CC1(c2ccc(O)cc2)NC(=O)N(c2ccccc2)N1 (stereo unspecified)
8%	-0.1%	/	/	O=C(CN1CCN(S(=O)(=O)c2ccccc2)CC1)Nc1ccnn1C1CCCC1
-25%	?	-3	-2%	COc1ccc(-c2nc(-c3ccccc3)c(-c3cc([N+](=O)[O-])ccc3C)[nH]2)cc1OC
1%	0.0%	/	/	Cn1cc(Cc2ccccc2)c(=O)c(Cc2ccccc2)c1
?	?	13	-5%	OCCNc1nc(-c2ccccc2)c2ccccc2n1
-27%	?	-9	1%	COc1ccccc1NC(=O)N1CCc2[nH]c3ccc(F)cc3c2C1
?	?	-8	-35%	COc1ccc(-c2cn3nc4c(nc3n2)CCCC4)cc1
8%	-4.6%	4[21.1 µM]	0%	CC1CCc2ccccc2N1C(N)=Nc1ccccc1 (stereo unspecified)
2%	-1.3%	/	-1%	CCOC(=O)C1CCN(C(=O)CCc2nnc3ccc(N4CCN(C)CC4)nn23)CC1
4%	3.7%	/	/	O=C(COC(=O)CCCOc1ccccc1)NC1CCS(=O)(=O)C1 (stereo unspecified)
-20%	?	1	12%	C/C(=N/O)c1ccc2c(c1)OCCOCCOc1cc(/C(C)=N/O)ccc1OCCOCCO2
-9%	-0.2%	/	/	CCOc1ccc(S(=O)(=O)N2CN(c3cccc(C(C)=O)c3)c3nc4ccccc4nc32)cc1
?	?	-5	-12%	COc1ccc(C2C(C#N)=C3NC(=O)c4c(sc5c4CCCCC5)N3C3=C2C(=O)CC(C)(C)C3)cc1 (stereo unspecified)
-8%	2.2%	/	-4%	CCc1ccc(NC(=O)NCC2CCN(Cc3cccc(Cl)c3)CC2)cc1
-10%	6.2%	0	-13%	COc1ccccc1Oc1ncnc2c1oc1ccccc12
12%	8.3%	/	0%	O=c1c2cc(Br)ccc2nc(-c2cccc(Cl)c2)n1O
14%	0.4%	-17	1%	COc1ccccc1Oc1ccc2c(c1)C(=O)N(c1cccc3ncccc13)C2=O
7%	1.4%	-6	-11%	COCCCNc1nc2c(c(=O)[nH]c(=O)n2C)n1CC(O)COc1cccc(C)c1 (stereo unspecified)
11%	6.9%	-2	0%	COc1cc(-c2nnc(COC(=O)c3cc(C)nc4ccc(C)cc34)o2)cc(OC)c1OC
1%	-4.2%	/	0%	N[C@@H](Cc1ccccc1)C(=O)N1CCC(C(=O)NCC(=O)NCC(=O)O)CC1
-13%	0.5%	-12	1%	N/C(=N/OCC(=O)Nc1cccc2ccccc12)c1nonc1N
-1%	-1.3%	-22	15%	COc1ccc(Oc2ccccc2C=O)cc1

Among those listed so far, these contain an aryl thioether with sulfur outside any ring.
Rango dissoc inh	Rango complex inh	GLA inh pH 4.5	miR-21 reporter	canonical_smiles
1%	0.2%	/	/	O=[N+]([O-])c1cccnc1Sc1ccc(Br)cc1
?	?	-18	-4%	CCN(CC)c1ccc(-c2nnc(SCC(=O)Nc3ccccc3C#N)n2-c2ccccc2)cc1
-1%	-0.1%	2	-16%	Cc1ccc(C)c2c1cc(C)c1nnc(SCc3ccccn3)n12
-12%	0.3%	10	-35%	O=C(CSc1nc(-c2ccccc2)cs1)NCc1ccco1
-8%	-0.5%	4	3%	Cc1ccc(NC(=O)CSc2nc3ccccc3c(=O)n2CCCC(=O)N2CCCC2)cc1
30%	1.2%	/	/	Cc1cccc(-n2nnnc2SCC(=O)NC2CCCC2)c1
7%	7.3%	-1	-9%	COc1cc(SC)ccc1C(=O)NC(C)C
2%	0.1%	-1	-6%	O=C(O)c1cccnc1Sc1ccccc1Cl

Screens deposited in PubChem by National Center for Advancing Translational Sciences (NCATS).
